Biofilm kill mix = mixtures killing C. albicans biofilm | C. albicans biofilm persisters + clotrimazole, fluorescence viability; primary screen in compound mixtures of four per well | inhibition, % at 7.6 µM | actives 0.02% (n = 120,000) | AID 1242;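 active = inhibition above 30.3% in the primary screen of four-compound pools, then above 30% when the compound was retested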;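 note: compounds exposed to preformed 24 h biofilms for 48 h; the number belongs to the whole pool; some results filed as inactive read as strong as hits; inactives centre near 12; 0% = biofilm with clotrimazole alone and 100% = kill control; retested singly at about 60 µM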
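Test system: C. albicans CAF4-2 wild-type biofilms; buffer or medium: RPMI/MOPS medium, pH 7.0; schedule: 24 h biofilm formation, then 48 h compound exposure, 37 °C; detection: Alamar Blue fluorescence; measure: percent inhibition of biofilm viability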
An asterisk follows results filed as active. Not all compounds are listed (hit frequency here may not be typical).

SMILES	Biofilm kill mix
O=C1OCCN1C(=O)[C@H]1[C@H](c2ccc(F)cc2)C(c2ccc(F)cc2)=NN1c1ccccc1	14
S=c1[nH]c2ccc3ccccc3c2[nH]1	27
Cc1cc(C(=O)CSc2nncs2)c(C)n1Cc1ccco1	-2
CCC(=O)O[C@@H]1CC(=O)O[C@H](C)CC=CC=C[C@@H](O)[C@H](C)C[C@H](CC=O)[C@H](O[C@H]2O[C@H](C)[C@@H](O[C@H]3C[C@@](C)(O)[C@@H](OC(=O)CC)[C@H](C)O3)[C@H](N(C)C)[C@H]2O)[C@H]1OC	11
N#C/C(=C(/O)CCCl)c1ccccn1	-1
COc1ccc2nc(NC(=O)CSc3nnc(N)s3)sc2c1	21
COC(=O)c1ccccc1NC(=O)Cn1nc2n(C)c3ccccc3n2c(=O)c1=O	23
COc1cccc(/C=C/c2ccccn2)c1O	19
COc1cc(NC(=O)Cc2c(C(=O)O)n(C)c3ccccc23)cc(OC)c1OC	26
Cc1nnsc1C(=O)Nc1ccccc1	15
Cc1cc([N+](=O)[O-])cc2c1NCC1CC=CC21 (stereo not given)	15
CCn1c(SCC(O)c2ccccc2)nnc1-c1ccccc1 (stereo not given)	19
CS(=O)(=O)N1CCN(C(=O)Nc2ccccc2)CC1	14
COc1ccc(N2CCN(C(CNC(=O)c3ccc4c(c3)OCO4)c3ccco3)CC2)cc1 (stereo not given)	17
COc1ccccc1-c1c(C)nn2c(-c3ccccc3)cc(C)nc12	27
CCc1ccc(NC(=O)CSc2n[nH]c(C)c2[N+](=O)[O-])cc1	12
Cc1ccc(C)c(OCC(O)CN2CCN(CCN3C(=O)c4cccc5cccc(c45)C3=O)CC2)c1 (stereo not given)	16
CCC(=O)NC(c1ccc(N(C)C)cc1)c1c(O)ccc2ccccc12 (stereo not given)	-9
CCCc1nnc2n1N=C(c1ccc([N+](=O)[O-])cc1)CS2	28
O=C(CSc1ccc(-c2cccs2)nn1)N1CCCCCC1	7
CCCCCC1=NN2C(=O)CC(=O)N=C2S1	14
COC/C=C/C1=CC2=CC(=O)C(C)(OC(=O)c3cnc4ccccc4n3)C(=O)C2=CN1CCCCO (stereo not given)	20
Cc1cc(C)nc(SCc2nnc(SCC(=O)Nc3c(C)cccc3C)o2)n1	15
CCN1CCCc2cc(CN(CCN3CCOCC3)C(=S)Nc3ccccc3OC)ccc21	0
CCC(CC)N1CCN(CCc2ccccc2)C(CCO)C1 (stereo not given)	10
CCn1c(=O)c(=O)[nH]c2cc(C(=O)NCC3CCCCC3)ccc21	18
CC(C)S(=O)(=O)C/C(N)=N/OS(=O)(=O)c1ccc(Cl)cc1	13
CCC(C)N(C(=O)C(F)(F)F)C(C(=O)NC1CCCCC1)c1ccncc1 (stereo not given)	8
O=C1c2cccnc2C(Nc2ccccc2Br)N1Cc1ccco1 (stereo not given)	12
Cc1ccc2c(CSc3nnnn3C)cc(=O)oc2c1	14
COc1ccc(/C(C)=N/OC/C(O)=C(\C#N)c2nc3ccccc3[nH]2)cc1OC	17
O=C(CSc1nc2ccccc2o1)Nc1nccs1	7
CCCCNC(=O)c1ccc(N2CCC3(CC2)OCCO3)c([N+](=O)[O-])c1	19
CC(C)C[C@H](NC(=O)Nc1ccc(Oc2ccccc2)cc1)C(=O)O	20
CC(C)(C)NC[C@H](O)COc1nsnc1N1CCOCC1	10
COC(=O)CCC(=O)OC1(C)C(=O)C=C2C=C(C3CC3)N(CCc3c[nH]c4ccccc34)C=C2C1=O (stereo not given)	16
CCOc1ccc(NS(=O)(=O)c2ccc(NC(=O)[C@@H]3CCCC[C@@H]3C(=O)O)cc2)cc1	12
Fc1cc(F)c2nc(Nc3nc4c(F)cccc4s3)sc2c1	6
COc1cc(NC(=S)Nc2ccc(Br)cc2Cl)c(OC)cc1Cl	5
Cc1ccc(C(O)(COC(=O)C(C)C)COC(=O)C(C)C)c(O)c1	10
COc1cc(NC(=O)Cc2ccccc2)c(C(=O)O)cc1OC	6
O=c1ccc2ccc(Oc3ccc(Cl)cc3[N+](=O)[O-])cc2o1	10
Cc1ccc(S(=O)(=O)Nc2ccccc2C(=O)Nc2nc(-c3ccc(F)cc3)cs2)cc1	14
C1=CC2CCC1ON2c1ccccc1 (stereo not given)	21
COc1ccc(CN(C)Cc2nc(Cc3ccccc3Cl)no2)cc1OC	14
CNC(=O)Nc1cccc2cccnc12	19
CCCN1C(=O)COc2ccc(-c3n[nH]c(=O)c4ccccc34)cc21	17
Cc1ccc(S(=O)(=O)NCCC(=O)Nc2ccc(C)c(Cl)c2)cc1C	17
CC(C)OCCCNC(=O)C1CCC(CNS(=O)(=O)c2ccccc2)CC1 (stereo not given)	-2
NC(=S)c1cc2cc(Br)ccc2oc1=O	17
Nn1c(SCC(=O)Nc2cc(S(=O)(=O)N3CCOCC3)ccc2Cl)nnc1-c1cccnc1	12
COC(=O)Nc1nn(-c2ccc(C)cc2)c(=O)c(C#N)c1C	19
CCn1c(SCc2cc(=O)[nH]c3ccccc23)nnc1C1CC1	12
CC(=O)Nc1nc2c(s1)C(=O)NCCC2	8
COc1ccccc1Nc1nc(N)nc(CSC(=S)N2CC(C)CC(C)C2)n1 (stereo not given)	2
COc1ccccc1C(=O)O/N=C(\N)c1ccccc1Cl	7
O=C1C2C3CCC(C3)C2C(=O)N1Cc1ccccc1 (stereo not given)	10
O=C(OC(C(=O)Nc1ccc(Cl)cc1C(F)(F)F)c1ccccc1)C1=COCCO1 (stereo not given)	-6
Cc1ccc(NC(=O)Nc2nnc(-c3ccccc3)o2)cc1	9
CC(=O)c1ccccc1OCCOc1ncnc2sccc12	13
Following part
SMILES	Biofilm kill mix
S=C(NCCCn1ccnc1)NC1CCCCC1	6
O=c1c2c(-c3ccccc3)csc2nc2c3ccccc3c(NCCN3CCOCC3)nn12	22
CCCCCC(=O)Nc1ccc(C(=O)N/N=C/c2ccc([N+](=O)[O-])cc2)cc1	25
Cc1ccc(/C=N/NC(=O)c2nn(C)cc2Cl)cc1	-11
CCNC(=S)N=Nc1c(O)[nH]c2ccc([N+](=O)[O-])cc12	14
Cc1ccc(S(=O)(=O)N(C)CCCC(=O)Nc2ccc(C)cc2C)cc1	15
Cc1ccc(-n2c3c(c(O)c(-c4ccccc4)c2=O)C(=O)CC(C)(C)C3)cc1	2
CC(=O)Oc1ccc2c(=O)c(Oc3ccccc3[N+](=O)[O-])coc2c1	7
CCOC(=O)c1c(NC(=S)Nc2ccccc2)sc2c1CC(C)(C)SC2	13
Cc1cc(NC2CCCCC2)nc2ccccc12	9
O=S1(=O)N=C2CCCCCN2C(c2ccc(Br)cc2)N1 (stereo not given)	8
N#CC1=C(N)S[C@@H](C(=O)c2ccc(F)cc2)[C@@H]1c1cccs1	11
C=CCON/C(CCC)=C1\C(=O)C(C(=O)OC)C(C)(C)CC1=NC (stereo not given)	19
Cc1ccc(C)n1-c1ccc(-c2ccnc(N)n2)cc1	11
O=S(=O)(c1ccc2ccccc2c1)N1CCN(C(=S)Nc2ccc(F)cc2)CC1	12
COc1cccc(N(CC(=O)N/N=C(\C)c2cccs2)S(C)(=O)=O)c1	7
Cc1cc(C)n(CC(O)CN(c2ccccc2)S(=O)(=O)c2ccc3ccccc3c2)n1 (stereo not given)	4
O=S(=O)(NC1CCCCC1N1CCOCC1)c1ccc(Cl)cc1 (stereo not given)	-1
CC(=O)c1cc(-c2ccccc2)n(CCC(=O)NC2CCCCCC2)c1C	20
Clc1ccc(Nc2ccc(Cl)nn2)cc1	24
Cc1nc([N+](=O)[O-])nn1C12CC3CC(CC(Cl)(C3)C1)C2	11
Cc1nc([N+](=O)[O-])c(C(=O)OCc2ccccc2F)n1C	7
Fc1ccc(Nc2nc(NCc3ccco3)c3ccccc3n2)cc1	15
CCOC(=O)C1CCN(Cc2cc(C(C)(C)C)c(O)c(C(C)(C)C)c2)CC1	15
Cc1ccccc1-n1c(-c2ccncc2)n[nH]c1=S	4
O=C(NNc1cc(Cl)cc(Cl)c1)c1cccs1	-4
COc1ccc(C2/C=C\CN(CC(C)(C)C)CC(=O)N2Cc2ccc(F)cc2)cc1 (stereo not given)	18
O=C(N1CCOCC1)N1CCC(NC(=O)C23CC4CC(CC(C4)C2)C3)CC1	19
Cc1ccc2sc(C)[n+](CCCS(=O)(=O)[O-])c2c1	15
Cc1c(NC(=S)NCc2ccc(F)cc2)cccc1[N+](=O)[O-]	18

Ordered by number of heavy atoms (ascending): three of the compounds above
SMILES	Biofilm kill mix
S=c1[nH]c2ccc3ccccc3c2[nH]1	27
Fc1cc(F)c2nc(Nc3nc4c(F)cccc4s3)sc2c1	6
O=S(=O)(NC1CCCCC1N1CCOCC1)c1ccc(Cl)cc1 (stereo not given)	-1

Back to the main list; the 7 compounds before the break are reprinted first.
SMILES	Biofilm kill mix
CCOC(=O)C1CCN(Cc2cc(C(C)(C)C)c(O)c(C(C)(C)C)c2)CC1	15
Cc1ccccc1-n1c(-c2ccncc2)n[nH]c1=S	4
O=C(NNc1cc(Cl)cc(Cl)c1)c1cccs1	-4
COc1ccc(C2/C=C\CN(CC(C)(C)C)CC(=O)N2Cc2ccc(F)cc2)cc1 (stereo not given)	18
O=C(N1CCOCC1)N1CCC(NC(=O)C23CC4CC(CC(C4)C2)C3)CC1	19
Cc1ccc2sc(C)[n+](CCCS(=O)(=O)[O-])c2c1	15
Cc1c(NC(=S)NCc2ccc(F)cc2)cccc1[N+](=O)[O-]	18
CN1CCN(C(=O)c2cc(COc3c(F)cccc3F)on2)CC1c1ccccc1 (stereo not given)	13
C/C(=N\Nc1ccc(C(F)(F)F)cn1)c1ccncc1	12
Cc1n[nH]c(C)c1CCC(=O)N/N=C/C=C/c1ccccc1	17
Cc1ccc([N+](=O)[O-])cc1NC(=O)C(C)NS(=O)(=O)c1ccc(F)cc1 (stereo not given)	15
Nc1c(C(=O)N2CCOCC2)sc2nc3c(cc12)CCC3	21
Cc1noc(C)c1S(=O)(=O)N1CCC(C(=O)NCCCN2CC(C)CC(C)C2)CC1 (stereo not given)	2
Cc1cccc(NC(=O)Cn2nnc(C(=O)NCc3ccco3)c2N)c1	16
O=C(CSc1ncn[nH]1)c1cccc([N+](=O)[O-])c1	18
CCCCCc1cc(=O)oc2c(C(CCN3CCCCC3)c3ccc4c(c3)OCO4)c(OC)cc(OC)c12 (stereo not given)	10
CC1(C)Cc2c(sc3nc4n(-c5ccccc5)cnn4c(=O)c23)CO1	13
COc1cc2nc3occc3c(OC)c2cc1OC	14
O=C(CSc1ncnc2nc[nH]c12)c1ccc2ccccc2c1	20
NNC(=S)NC1CCS(=O)(=O)C1 (stereo not given)	3
COc1ccc(-c2csc(NC(=O)c3ccc(S(C)(=O)=O)cc3)n2)cc1	4
COc1ccccc1CCNC(=O)CSc1nnc2ccc(-c3ccncc3)nn12	9

In the list so far, 3 contain a tert-butyl group:
SMILES	Biofilm kill mix
CC(C)(C)NC[C@H](O)COc1nsnc1N1CCOCC1	10
CCOC(=O)C1CCN(Cc2cc(C(C)(C)C)c(O)c(C(C)(C)C)c2)CC1	15
COc1ccc(C2/C=C\CN(CC(C)(C)C)CC(=O)N2Cc2ccc(F)cc2)cc1 (stereo not given)	18

Other results follow.
SMILES	Biofilm kill mix
CCn1nc(C(=O)OCC(=O)Nc2nc(-c3ccc(OC)cc3)cs2)c2ccccc2c1=O	7
CCCC(C)NC(=O)CSc1nc(-c2ccccc2)cn1N (stereo not given)	18
COc1ccc(-c2noc(CN(Cc3nccn3C)C(C)C)n2)cc1	21
O=C(NC1CC1)c1ccc2c3c(cccc13)CC2	23
Cn1ncc(Br)c1C(=O)NC1C2CC3CC(C2)CC1C3 (stereo not given)	-10
CNS(=O)(=O)c1cccc(C(=O)OCc2csc(-c3ccccc3)n2)c1	11
CCOc1ccccc1N1CN(Cc2ccccc2)CNC1=S	6
OCCC1CN(Cc2cccnc2)CCN1CCc1ccccc1 (stereo not given)	1
CCOC(=O)c1ccc(NC(=O)c2cc(=O)[nH]c3ccccc23)cc1	15
COCCCNC(=S)Nc1cc(C)c(C)cc1C	14
CCN(C(=O)COC(=O)C1CCN(S(=O)(=O)c2cccs2)CC1)c1ccccc1	-8
Cc1c(CCOC(=O)c2cc([N+](=O)[O-])ccc2Cl)sc[n+]1CCCCS(=O)(=O)[O-]	7
Cc1oc(-c2ccc3c(c2)OCCO3)cc1C(=O)O	-7
O=C1c2cccc3c([N+](=O)[O-])ccc(c23)C(=O)N1CC1CCCO1 (stereo not given)	15
Clc1cc2cccnc2c2ccccc12	12

Quoted from the listing:
In Biofilm kill mix, `CCOc1ccccc1N1CN(Cc2ccccc2)CNC1=S` has 6
In Biofilm kill mix, `C/C(=N\Nc1ccc(C(F)(F)F)cn1)c1ccncc1` has 12
In Biofilm kill mix, `COc1cc(NC(=O)Cc2c(C(=O)O)n(C)c3ccccc23)cc(OC)c1OC` has 26
In Biofilm kill mix, `CS(=O)(=O)N1CCN(C(=O)Nc2ccccc2)CC1` has 14
In Biofilm kill mix, `COc1ccccc1CCNC(=O)CSc1nnc2ccc(-c3ccncc3)nn12` has 9

Other structures follow.
SMILES	Biofilm kill mix
COCCSc1ccccc1C(=O)N1CCc2ccccc2C1	16
COc1ccc(/C(C)=N/N=C(N)N)c(OC)c1	12
CCOc1ccc(CCNC(=O)CSc2nn(-c3ccc(C)c(Cl)c3)c(=S)s2)cc1OCC	13
Cc1cc2cc(C=C(C#N)C#N)c(Cl)nc2cc1C	5
c1coc(CN(Cc2ccco2)c2ncnc3c2oc2ccccc23)c1	6
COc1ccccc1N1CCN(C(=O)c2n[nH]c3ccccc23)CC1	16
Cc1ccc2c(c1)C1CN(C)CCC1N2C(=O)COc1ccc(N(C)C(=O)C(C)(C)C)cc1 (stereo not given)	12
O=C(Nc1ccccc1Cl)c1ccccc1Cc1ccccc1	3
NC(=O)NOCc1ccc(Cl)cc1Cl	15
CC(=O)OCC(=O)Nc1ccc([N+](=O)[O-])cc1Cl	6
